HIV Env fusion = inhibitors of HIV Env-mediated cell fusion; AID 651610; HeLa-JRFL Env/CEM21 cell fusion, luciferase; hit rate 1.1% among 360,000; inhibition, % at 12.3 µM;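 active = mean replicate inhibition score of at least 50 and every replicate individually at or above 50; inconclusive = only one of the two criteria met; inactive = mean below 50 and not all replicates reaching 50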;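 note: 0% = plate neutral controls and 100% = maraviroc near 300 nM; one replicate is shown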
MT1-MMP act inh = blocks activation of human MT1-MMP | hit rate 0.061% among 360,000 | GFP/RFP ratio change, % at 20 µM | HT1080 RFP-PRO-GFP cells, GFP/RFP ratio fluorescence, overnight; percent of plate control window, DMSO zero | P50281;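 active = GFP/RFP ratio change of at least 30% with cell ATP level not reduced by more than half and red fluorescence within 50% of control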; note: strong numbers were not always called active
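Compound: 20 µM single dose, 1% DMSO / System: HT1080 RFP-PRO-GFP cells / Controls: DMSO and RFP-L50D-GFP cell wells / Read-out basis: GFP/RFP fluorescence ratio / Schedule: overnight compound exposure at 37 °C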
Rce1 inh = yeast Ras-converting enzyme inhibition | Q03530 | yeast membranes, quenched prenylated peptide cleavage fluorescence | calls only | hit rate 0.27% among 290,000;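 active = fall in fluorescence gain of 50% or more versus controls, with final raw signal at or below 3038400; inconclusive = same 50% fall but final raw signal above 3038400; inactive = fall in fluorescence gain under 50%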;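 note: plate controls were neutral control wells for no effect and wells lacking membranes for full effect; tested at 10 µM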
Target sequence (Q03530 whole entry, looked up): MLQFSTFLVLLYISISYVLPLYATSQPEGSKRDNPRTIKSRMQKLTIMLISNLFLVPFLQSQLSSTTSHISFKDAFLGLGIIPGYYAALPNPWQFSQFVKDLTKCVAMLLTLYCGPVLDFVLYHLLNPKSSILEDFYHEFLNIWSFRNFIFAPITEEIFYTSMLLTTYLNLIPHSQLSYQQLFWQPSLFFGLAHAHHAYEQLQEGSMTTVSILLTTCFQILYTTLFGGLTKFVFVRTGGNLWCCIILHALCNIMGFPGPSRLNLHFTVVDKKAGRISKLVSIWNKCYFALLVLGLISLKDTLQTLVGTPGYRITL
PABP polyA inh = blocks human PABP binding to poly(A) RNA; fluorescence polarization; inhibition, % at 35 µM; hit rate 1% among 290,000;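 active = 50% or more with normal probe brightness, or confirmed in later tests; inconclusive = above 50% with abnormal brightness, or retests that disagree; inactive = below 50% or failed in later tests; about a fifth of its hits are not listed in these tables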;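 note: calls also rest on retests at 20 µM and on dose response follow-up; controls were probe without protein and protein plus probe with vehicle; some compounds called inactive have numbers as strong as hits; many hits fall short of the cut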
Target sequence (P11940 whole entry, looked up): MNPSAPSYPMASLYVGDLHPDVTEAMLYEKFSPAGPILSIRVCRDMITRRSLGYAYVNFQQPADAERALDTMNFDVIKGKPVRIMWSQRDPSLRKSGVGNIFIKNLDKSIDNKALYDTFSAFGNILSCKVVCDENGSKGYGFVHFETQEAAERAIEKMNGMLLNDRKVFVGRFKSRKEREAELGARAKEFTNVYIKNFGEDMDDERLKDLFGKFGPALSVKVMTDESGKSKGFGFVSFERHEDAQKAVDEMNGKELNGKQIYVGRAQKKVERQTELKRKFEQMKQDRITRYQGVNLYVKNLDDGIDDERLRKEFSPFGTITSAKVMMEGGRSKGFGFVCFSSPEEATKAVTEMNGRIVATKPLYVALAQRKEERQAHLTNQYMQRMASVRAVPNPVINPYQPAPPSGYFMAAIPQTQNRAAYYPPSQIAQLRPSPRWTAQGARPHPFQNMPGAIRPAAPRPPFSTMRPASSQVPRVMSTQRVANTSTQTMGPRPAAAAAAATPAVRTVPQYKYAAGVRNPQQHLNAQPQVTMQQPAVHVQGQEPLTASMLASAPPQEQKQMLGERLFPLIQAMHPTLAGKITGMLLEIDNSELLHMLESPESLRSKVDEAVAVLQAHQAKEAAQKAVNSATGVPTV
eIF4H inh = inhibitors of RNA binding by human eIF4H. hit rate 0.94% among 290,000. eIF4H fluorescence polarization binding assay. inhibition, % at 35 µM. Q15056;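 active = 50% or more with normal probe brightness, or confirmed in later tests; inconclusive = above 50% with abnormal brightness, or retests that disagree; inactive = below 50% or failed in later tests; about a fifth of its hits are not listed in these tables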;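 note: calls also rest on retests at 20 µM and on dose response follow-up; 0% = protein and probe with vehicle and 100% = probe without protein; strong numbers were not always called active; many hits fall short of the cut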
UUG fidelity = modulators of start codon recognition fidelity in yeast; S. cerevisiae UUG-firefly luciferase reporter, luminescence/redox ratio; activity score, % at 18.7 µM; hit rate 0.13% among 350,000;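 active = replicate mean at a twofold rise or more, about +100% in these data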;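 note: firefly luciferase made from a UUG start codon reports start codon fidelity; reporter light over untreated wells divided by growth signal over untreated wells; some hits fall short of that in this replicate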
CSC inhib = blocks cancer stem cells | cancer stem cell-like cells viability, luminescence | inhibition, % at 7.5 µM | hit rate 1.1% among 300,000;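 active = mean at 75% or more and at least half the replicates too; inconclusive = mean and replicates disagree; tested in HMLE shEcad cells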;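 note: 0% = median of negative and 100% = median of positive control wells; the first replicate is given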
eIF4H inh retest = second read-out of eIF4H inh, no call of its own (marks repeat the call); inhibition, %; compound at 20 µM; confirmation average;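 mean of two retest wells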
PABP polyA inh retest = recorded beside PABP polyA inh, whose call it bears; inhibition, %; compound at 20 µM; confirmation repeats;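 mean of two retest wells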
MT1-MMP act inh RFP = further read-out of MT1-MMP act inh, marked with its call; RFP signal change, %; measured here: RFP expression control read;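 0 = vehicle wells; hits needed this value within 50% of zero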
Starred values were filed as active, the others as inactive; i = inactive; ? = inconclusive; . = not tested or not shown; & = joins results of further samples; ! = not active in a repeat.

A first look (2 entries):
SMILES	HIV Env fusion	MT1-MMP act inh	MT1-MMP act inh RFP	Rce1 inh	PABP polyA inh	eIF4H inh	UUG fidelity	CSC inhib	others
CC(=O)OC1CC(C)(C)N(OC(=O)CCCN2C(=O)c3ccccc3C2=O)C(C)(C)C1	.	8	0	i	2	-6	-7	-15
CC(=O)Nc1ccc(S(=O)(=O)N2CCOCC2)cc1	-61	1	2	.	-14	-5	-22	-13

The whole of this part (from the top)
SMILES	HIV Env fusion	MT1-MMP act inh	MT1-MMP act inh RFP	Rce1 inh	PABP polyA inh	eIF4H inh	UUG fidelity	CSC inhib	others
CC(=O)OC1CC(C)(C)N(OC(=O)CCCN2C(=O)c3ccccc3C2=O)C(C)(C)C1	.	8	0	i	2	-6	-7	-15
CC(=O)Nc1ccc(S(=O)(=O)N2CCOCC2)cc1	-61	1	2	.	-14	-5	-22	-13
CC(C)(C)OC(=O)N1CCN(C(=O)c2nc[nH]c2C(=O)N2CCN(c3ccccc3)CC2)CC1	?	1	5	.	.	.	-14	-20
CCc1c(Nc2ccccc2C)nc(N)[nH]c1=O	25	-2	-3	.	.	.	-2	.
O=C(c1ccccc1)c1cccn1CC(=O)N1CCN(C2CCCCC2)CC1	.	1	2	i	-6	-11	-13	-7
O=C(NCCN1CCCC(O)C1)c1cc(COc2c(F)cccc2F)on1 (stereo unspecified)	-3	.	.	i	-6	2	3	8
O=C(CCl)Nc1ccccc1C(=O)NCc1ccccc1	0	1	1	i	7	-8	.	-3
COc1ccc(NC(=O)C2Cc3c(-c4cccc(F)c4)ccnc3O2)cn1 (stereo unspecified)	15	2	-7	.	.	.	5	.
NS(=O)(=O)c1ccc(NC(=O)CCC(=O)N2CCOCC2)cc1	21	3	2	i	-5	-8	-4	.
CC(=O)c1c(C)nc2sc3c(=N)n(N)cnc3c2c1-c1ccc(Cl)cc1	-2	-9	-4	i	6	3	.	18
COC(=O)c1cnn(-c2ccc(F)cc2F)c1/C=N/NC(N)=S	48	8	-16	i	13	0	-12	-14
CCOC(=O)c1cc(C)n(CCCN2CCOCC2)c1C	.	3	10	i	-1	-4	-17	-6
O=c1c2ccccc2nc2c3ccccc3cnn12	-82	-1	1	.	0	-3	.	-4
CC(=O)Nc1ccc(-c2ccnc3c2CC(C)(C(=O)Nc2cccc(C(C)=O)c2)O3)cc1 (stereo unspecified)	7	1	0	.	.	.	4	.
CCN1C(=O)/C(=C\N(C)C)c2ccccc21	-38	-1	0	i	-2	4	-22	-7
CCCC(=O)Nc1nc2ccc(NC(=O)c3ccc(Br)o3)cc2s1	.	4	-3	i	-10	1	4	3
COc1cc(NC(=S)NCCc2ccc(S(N)(=O)=O)cc2)c(OC)cc1Cl	-1	-5	-2	i	-7	2	.	-11
CC(C)(C)c1ccc(OCCn2ccccc2=O)cc1	-107	12	-1	i	-12	-4	-5	1
COc1ccccc1NS(=O)(=O)c1cc(N=N/C(C(=O)Nc2ccc(Cl)cc2)=C(/C)O)ccc1C	.	2	6	.	.	.	-7	-2
CCOC(=O)N1CCN(C(=O)c2ccc(SC)cc2OC)CC1	19	-1	6	i	-7	-6	3	-12
COc1ccc(Cc2c(O)nc(SC)n(C(C)=O)c2=O)cc1	.	4	4	i	-1	0	-9	12
O=C(NC1CCN(C(=O)Nc2cccc(Cl)c2)CC1)C1CCCCC1	-18	1	-2	i	-1	6	-17	8
CCc1ccc(C(=O)Cc2cc3cccc(OC)c3oc2=O)cc1	-28	3	-2	i	-11	9	-22	-5
Cn1nc(C(C)(C)C)cc1C(=O)NNC(=O)c1cccc(Cl)c1	2	-1	-25	i	24	11	-2	3
COC(=O)Cn1c2c(c3cc(C)ccc31)CCCC2NC(C)c1ccccc1 (stereo unspecified)	14	-6	-4	i	-6	5	.	-10
COCCNC(=O)c1ccc2c(c1)S(=O)(=O)c1ccccc1C2=O	-12	5	5	i	.	.	-8	-7
NC(COCc1ccccc1)c1csc(Nc2nncc3ccccc23)n1 (stereo unspecified)	10	-2	1	.	.	.	-13	.
C1=C(CCNc2ncnc3nc[nH]c23)CCCC1	11	-8	-24	i	-10	-3	-20	10
O=C(Nc1ccc(Cl)cn1)c1cnn2cccnc12	.	1	-1	.	-5	-5	-16	-3
COc1ccc(NC(=S)N2CCC(Cc3ccccc3)CC2)cc1	-1	2	-2	i	0	-5	-28	4
CCN(C(=O)CN1C(=O)S/C(=C\c2ccccc2OC)C1=O)C1CCS(=O)(=O)C1 (stereo unspecified)	-7	1	-3	i	-2	-8	-6	-11
O=Cc1nc(-c2ccc(Cl)cc2)n2ccccc12	-56	-3	3	i	-1	-13	.	-6
CCN1CCN(Cc2ccc(NC(=O)c3ccc(C)c(NC(=O)C(=O)c4c[nH]c5ccccc45)c3)cc2C(F)(F)F)CC1	35&47	-3&-3&-18	0&-2&-12	i	-15&-27	-36&-14	35&-4&-2	102*!
COCCN(CCOC)C(=S)Nc1cc(S(=O)(=O)N(C)C)ccc1C	13	2	-2	i	0	1	3	5
Cc1noc(C)c1S(=O)(=O)N(C)C[C@H]1Oc2c(NC(=O)Nc3ccc4c(c3)OCO4)cccc2C(=O)N([C@H](C)CO)C[C@@H]1C	-32	-1	5	.	.	.	-19	.
Clc1cccc(N2CCN(c3ncnc4nc[nH]c34)CC2)c1	1	2	-3	i	5	45	.	24
CCNc1oc(-c2ccccc2F)nc1S(=O)(=O)c1ccccc1	.	3	1	.	-4	-12	-24	-10
CC12CC(NC(=O)N1CCc1ccccc1)c1ccccc1O2 (stereo unspecified)	-4	9	-16	i	-2	-1	-1	5
CC(=O)Nc1ccc(-c2ccnc3c2CC(C)(C(=O)Nc2ccc4c(c2)OCO4)O3)cc1 (stereo unspecified)	-82	0	-5	.	.	.	-4	.
Cc1ccc(SCc2nc3ccccc3n2CC(=O)Nc2c(C)cccc2C)cc1	-24	5	-2	i	-12	-3	-24	8
O=C(CCn1ccc2ccccc21)Nc1ccc(N2CCOCC2)cc1	-74	-3	-1	i	10	2	-6	-10
COc1cc(OC)c(OC)cc1/C=N/Nc1ncnc2c1[nH]c1ccc(C)cc12	19	3	4	i	0	16	-22	-13
C=CCn1c(SCC(=O)c2c(N)n(C3CC3)c(=O)[nH]c2=O)nnc1-c1ccc(OC)cc1	-7	0	-3	.	.	.	-14	.
CCCOc1ccccc1C1CC(=O)NC(C)=C1C(=O)OCC(C)C (stereo unspecified)	.	-1	-11	i	-2	1	-10	-7
COCCN(Cc1nc2ccccc2c(=O)[nH]1)C(=O)COc1ccccc1-c1ccccc1	19	1	-2	.	.	.	4	.
COC(=O)c1ccccc1N/C=C1\CCc2c(c(C)nn2-c2ccccn2)C1=O	.	1	0	i	11	10	-9	12
COc1ccc(/C=N/NC(=O)c2nonc2C)cc1	.	2	4	i	1	-2	.	-5
CSc1nc2ccc3nc(NC(=O)c4cccs4)sc3c2s1	.	3	1	i	-14	-19	-14	45
CC(=O)c1c(C(C)=O)c(C)n(-c2cccc3cccnc23)c1C	9	2	1	i	3.8*	101	-17	-10	eIF4H inh retest=38;PABP polyA inh retest=71*
O=C(Nc1nc2ccccc2s1)c1cnccn1	.	7	-7	i	-16	4	-24	19
CCOc1ccc(C(=O)NCC(=O)N2CC=C(c3ccccc3)CC2)cc1OCC	3	4	10	i	.	.	-7	.
COc1cc(NC(=O)c2cc(-c3cccc(O)c3)on2)cc(OC)c1OC	19	1	-3	i	5	-3	5	52
CCOC(=O)[C@@H]1[C@H]2COc3ccccc3[C@@H]2N2C(=O)N(c3ccc(C)cc3)C(=O)[C@@]12C	-28	4	8	.	.	.	-14	-14
COc1ccc(CCC(=O)Nc2cc([N+](=O)[O-])ccc2OC)cc1	5	3	-3	i	0	-2	.	1
O=C1c2ccncc2C(=O)N1C1CCCCC1	-30	1	4	i	2	-2	-11	-12
COC(=O)C1=C(C)Nc2ncnn2C1c1ccco1 (stereo unspecified)	.	2	3	i	-7	4	-3	.
CCC1CCCCN1CCCNC(=O)CN1C(=O)COc2ccc(S(=O)(=O)N3CCOCC3)cc21 (stereo unspecified)	-15	-1	4	i	-4	0	-10	-8
Cc1ccc(OCCNC(=O)c2ccccc2SCC(=O)N2CCCC2)cc1	4	11	-2	i	.	.	2	-4
Cn1cnc2c1c(=O)n(Cc1ccccc1)c(=O)n2C	-7	0	0	i	12	-8	-9	2
CCNC(=O)CN1C(=O)NC(Cc2ccccc2)(Cc2ccccc2)C1=O	-10	3	3	i	-2	-7	11	-5
(next part)
SMILES	HIV Env fusion	MT1-MMP act inh	MT1-MMP act inh RFP	Rce1 inh	PABP polyA inh	eIF4H inh	UUG fidelity	CSC inhib	others
O=C(/C=C/c1ccc(S(=O)(=O)NCc2ccco2)cc1)NCc1cccc(Cl)c1	5	1	-4	i	1	-5	-2	34
Cc1cccc(Nc2ncccc2C(=O)O)c1C	.	0	4	i	16	8	-2	-19
Cc1noc(C)c1C(=O)Nc1sc(C)c(C)c1C#N	-9	6	7	i	11	16	-12	8
COC(=O)C1=C(C)N(Cc2ccccc2)C(=NCCc2c[nH]c3ccccc23)N[C@H]1c1cccc(F)c1	?	-3	1	.	.	.	10	123*
C[C@H](NC(=O)c1nc[nH]c1C(=O)NCc1ccccc1)C(=O)OCc1ccccc1	18	3	-1	i	0	2	-8	-6
CC(=O)c1cccc(NC(=O)c2cc(S(=O)(=O)N3CCCCC3)ccc2N2CCOCC2)c1	-18	-2	2	.	.	.	-3	.
CCCn1nnc(NC(=O)c2cccc(OCc3ccccc3)c2)n1	-20	-1	-1	i	-16	-4	-10	-14
N#C/C(=C(/O)COC(=O)COc1ccc(Cl)cc1)c1nc2ccccc2[nH]1	-3	-19	3	i	2	10	.	-9
COc1cc(OC)cc(-c2cc3ccccc3c(=O)o2)c1	.	1	0	.	.	.	-21	28
O=C1NC2(CCC3(CC2)OCCO3)NN1c1ccccc1	3	1	-1	i	2	-3	.	2
Cc1c(C(=O)NN)sc(-c2ccccc2)c1C#N	1	0	4	i	-8	-5	.	-14
CC(C)CC(c1nnnn1C(C)C)N1CCN(C(=O)c2ccco2)CC1 (stereo unspecified)	-5	1	5	i	.	.	1	-16
Cc1cc(C(=O)Nc2cc(S(C)(=O)=O)ccc2Cl)no1	-6	0	-1	i	.	.	3	-4
CCC(=O)Nc1cc(C(F)(F)F)ccc1N1CCOCC1	.	-4	-2	i	-13	-7	-10	-7
Cc1ccccc1OCC(=O)OCC(=O)NCc1ccccc1	1	-1	7	.	.	.	-18	0
Cc1cc(N(C)C)c(C#N)c(NCc2ccccc2)n1	.	0	3	i	5	6	-6	-1
CC(Nc1ccccc1)c1cc(Cl)ccc1O (stereo unspecified)	.	2	4	.	-15	4	1	-5
CC1(C(=O)Nc2cccc(OC(F)(F)F)c2)Cc2c(-c3cccc(C(N)=O)c3)ccnc2O1 (stereo unspecified)	13	-2	-8	.	.	.	-16	.
CCOC(=O)N1CCN(CC(=O)Nc2cccc(Br)c2)CC1	.	5	8	i	-4	-3	-7	-6
CC(=O)c1ccc(S(=O)(=O)N2CCC(C(=O)Nc3ncc(C)s3)CC2)cc1	-23	-4	-5	.	.	.	-10	-2
O=C(Nc1ccc(Br)cn1)C1CCN(S(=O)(=O)c2cccs2)CC1	0	0	-30	i	3	0	-19	1
O=C(N/N=C/c1ccc([N+](=O)[O-])s1)c1ccccc1	-1	-8	-11	i	10	31	-4	.
O=C(CNC(=O)c1cccs1)NCC(=O)OCc1ccc(Cl)cc1Cl	5	0	3	i	-10	1	-18	-6

Screens (PubChem)

Random draw from the library; about 2.9% have a hit in one of these screens.
